Mtb growth: Mycobacterium tuberculosis H37Rv growth inhibition, cell based, confirmatory dose response (AID 1949). M. tuberculosis H37Rv growth inhibition. most inactive calls were filed without a number and no value below 0 was filed. one-dose inhibition, % at 10 µg/mL; IC50 in µg/mL for titrated hits. 100,000 compounds, 1.6% hits;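 active means confirmed in a dose series; inconclusive means about 50% or more but not retested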;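 further: bacteria grown 7 days with compound before Alamar blue readout; 0% = untreated bacteria and 100% = reference antibiotic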
Numbers without * were called inactive; i = inactive; ? = inconclusive. Not all compounds are listed; the hit share may differ from the screen's.

Start of the data: the first 17 records as a preview:
SMILES | Mtb growth
CCCc1cc(C(=O)Nc2ccc(C(=O)OC)cc2)cs1 | i
CCC(C)(C)NC(=O)c1cc(OC)cc(OC)c1 | i
Cc1ccc(NC(=O)c2ccoc2C)c([N+](=O)[O-])c1 | i
Oc1ccc(-c2cn3ccccc3n2)cc1O | i
O=C1CC(NCCc2ccccc2)C(=O)N1CCc1ccccc1 (stereo not drawn) | i
COc1ccc(S(=O)(=O)Nc2cccc([N+](=O)[O-])c2C)cc1Br | i
CC1(C)C(=O)OC(c2cccc([N+](=O)[O-])c2)C2(CCCCC2)C1=O (stereo not drawn) | 2%
CCOc1ccc(S(=O)(=O)Nc2ccc(C(F)(F)F)cc2)cc1 | 6.3µg/mL*
CCCC(=O)N1CCN(c2ccc(NC(=O)c3ccc(OCC)c(Br)c3)cc2)CC1 | i
Cc1ccc(C(C)C)c(OCC(=O)NNC(=O)Nc2ccc3c(c2)OCO3)c1 | i
COc1ccc(CCNC(=O)C(C)Sc2ccc(C)cc2)cc1OC (stereo not drawn) | 4%
C=CCn1c(SCC(=O)N2CCc3cc(OC)c(OC)cc3C2)nc2sc(C)c(C)c2c1=O | i
CN(CC(=O)O)C(=O)c1ccc(S(=O)(=O)N2CCCCC2)cc1 | i
CCCC(=O)Nc1cccc(NC(=O)c2cccc(-c3cc4ccccc4oc3=O)c2)c1 | i
COc1cc(C=O)ccc1OCCOCCOc1ccccc1F | i
O=C(c1ccc(-c2ccccc2)cc1)N1CCN(C2CCCCC2)CC1 | i
CC(C)c1ccc(OCC(=O)N(Cc2nc(-c3ccc(Cl)cc3)no2)C(C)C)cc1 | ?

This part in full, from the start:
SMILES | Mtb growth
CCCc1cc(C(=O)Nc2ccc(C(=O)OC)cc2)cs1 | i
CCC(C)(C)NC(=O)c1cc(OC)cc(OC)c1 | i
Cc1ccc(NC(=O)c2ccoc2C)c([N+](=O)[O-])c1 | i
Oc1ccc(-c2cn3ccccc3n2)cc1O | i
O=C1CC(NCCc2ccccc2)C(=O)N1CCc1ccccc1 (stereo not drawn) | i
COc1ccc(S(=O)(=O)Nc2cccc([N+](=O)[O-])c2C)cc1Br | i
CC1(C)C(=O)OC(c2cccc([N+](=O)[O-])c2)C2(CCCCC2)C1=O (stereo not drawn) | 2%
CCOc1ccc(S(=O)(=O)Nc2ccc(C(F)(F)F)cc2)cc1 | 6.3µg/mL*
CCCC(=O)N1CCN(c2ccc(NC(=O)c3ccc(OCC)c(Br)c3)cc2)CC1 | i
Cc1ccc(C(C)C)c(OCC(=O)NNC(=O)Nc2ccc3c(c2)OCO3)c1 | i
COc1ccc(CCNC(=O)C(C)Sc2ccc(C)cc2)cc1OC (stereo not drawn) | 4%
C=CCn1c(SCC(=O)N2CCc3cc(OC)c(OC)cc3C2)nc2sc(C)c(C)c2c1=O | i
CN(CC(=O)O)C(=O)c1ccc(S(=O)(=O)N2CCCCC2)cc1 | i
CCCC(=O)Nc1cccc(NC(=O)c2cccc(-c3cc4ccccc4oc3=O)c2)c1 | i
COc1cc(C=O)ccc1OCCOCCOc1ccccc1F | i
O=C(c1ccc(-c2ccccc2)cc1)N1CCN(C2CCCCC2)CC1 | i
CC(C)c1ccc(OCC(=O)N(Cc2nc(-c3ccc(Cl)cc3)no2)C(C)C)cc1 | ?
Cc1sc2ncnc(SCCN3C(=O)c4ccccc4C3=O)c2c1C | i
COc1cccc(=O)c2c(C)n(C)c(C)c12 | 0%
COc1cccc(N(CC(=O)Nc2ccc(F)c(Cl)c2)S(C)(=O)=O)c1 | i
COc1ccc(CNC(=O)c2ccc(N(C)S(=O)(=O)c3ccccc3)cc2)cc1 | i
O=c1c2ccccc2ncn1CCCCOc1ccc(Br)cc1Cl | i
CCC1CCc2nc3oc(SCC(=O)Nc4ccon4)nc3c(C(F)(F)F)c2C1 (stereo not drawn) | i
O=Cc1ccccc1OCc1c(F)cccc1Cl | 2%
O=C(COc1ccccc1Cl)Nc1ccccc1CO | i

(next part)
SMILES | Mtb growth
CCN(CC)c1ccc(NC(=S)Nc2ccc(F)cc2F)cc1 | 29%
O=C(CSc1nnc(-c2ccco2)n1-c1ccccc1)NCc1ccco1 | i
CCNC(=O)CC1Sc2ccc(C(F)(F)F)cc2NC1=O (stereo not drawn) | i
COc1ccc(C(=O)CSc2cc(C)c3ccccc3n2)cc1 | i
Cc1c(NC(=S)Nc2ccc(F)c(Cl)c2)c(=O)n(-c2ccccc2)n1C | i
COc1ccc2c(c1)C(C1C(=O)CCCC1=O)c1ccccc1O2 (stereo not drawn) | i
Cc1ccc(OCCCN2CCCCC2)c(Br)c1 | i
CCn1c(CNC(=O)Cc2ccc(OC)cc2)nnc1SCC(=O)c1ccccc1 | i
Cn1c2c(c(=O)n(C)c1=O)C(O)(C(F)(F)F)C(=O)N2 (stereo not drawn) | 0%
COc1ccc(S(=O)(=O)N(CC(=O)NC2CCCC2)Cc2ccccc2)cc1Cl | i
Cc1cc(Br)ccc1NS(=O)(=O)c1ccc(F)cc1 | 5%
COc1cc(NC(=O)c2ccc(OC)cc2OC)cc(OC)c1 | 26%
CCc1ccc(NC(=O)CSc2nc(C)cc(C)n2)cc1 | i
O=C(Nc1ccc2c3c(cccc13)CC2)c1ccc2c(c1)OCO2 | 37%
Cc1cc(C)c(S(=O)(=O)N(CC(=O)Nc2ccc(F)cc2F)C2CCCCC2)c(C)c1 | i
Cc1cccc(NC(=O)c2cccc(Br)c2)n1 | i
CNC(=O)CN(C)S(=O)(=O)c1ccc(F)cc1 | i
O=C(COc1ccc(S(=O)(=O)NC2CCCCC2)cc1)NCc1ccccc1Cl | i
N#Cc1ccccc1CSc1ncccn1 | 1%
Cc1noc(NS(=O)(=O)c2ccc(NC(=O)CS(=O)(=O)c3ccccc3)cc2)c1C | i
Cc1ccc(NS(=O)(=O)c2ccc(NC(=O)c3ccc(Br)cc3)cc2)cc1 | i
COc1cc(C(=O)Nc2nnc(-c3sccc3C)s2)cc(OC)c1OC | i
COC(=O)c1ccc(NC(=O)c2ccccc2N(C)S(C)(=O)=O)cc1 | i
Cc1cc(C(F)(F)F)nn1CC(=O)N1CCCC1 | i
O=C(Nc1ccc(Cl)cc1Cl)C1CC(=O)N(Cc2ccccc2)C1 (stereo not drawn) | i

Next section:
SMILES | Mtb growth
COC(=O)c1ccc(COC(=O)c2ccc(Oc3cccc(C#N)c3C#N)cc2)cc1 | i
COc1ccc(NC(=O)C2CCN(C(=O)c3ccc(Br)cc3)CC2)c(OC)c1 | i
CC(=O)C1=C(C)Nc2ncnn2C1c1ccc(C)cc1 (stereo not drawn) | i
COc1ccc(NC(=O)c2c(Cl)ccc(Cl)c2OC)cc1 | i
O=[N+]([O-])c1cccc(S(=O)(=O)Nc2cc(Br)c(O)c3ccccc23)c1 | 5.3µg/mL*
COc1ccc(S(=O)(=O)N2CCC(C)CC2)cc1Br | 0%
CCC(C)c1ccccc1OCC(=O)Nc1ccc(C)cc1 (stereo not drawn) | 4%
CCNC(=S)N1CCC(C(O)(c2ccccc2)c2ccccc2)CC1 | i
O=C1CN(c2ccccc2)C(=O)C1C(=O)N1CCOCC1 (stereo not drawn) | i
CCOC(=O)CSc1nnc(COc2ccc(Br)cc2)n1Cc1ccccc1 | 2%
Cc1cc(C)c(S(=O)(=O)Nc2ccc(F)cc2)cc1C | 2%
Cc1ccc(S(=O)(=O)N(CC(=O)Nc2ccc3c(c2)OCCO3)c2cccc(Cl)c2C)cc1 | i
COc1ccc(NS(=O)(=O)c2ccc3oc4ccccc4c3c2)cn1 | 1%
COc1cc(CO)cc(Cl)c1OCc1cccc([N+](=O)[O-])c1 | 4%
COc1ccccc1OCC(=O)Nc1ccc(S(=O)(=O)Nc2nc(C)cc(C)n2)cc1 | i
CCCS(=O)(=O)N1CCN(C(=O)c2ccccc2F)CC1 | i
CCOC(=O)c1c(NC(=O)Cn2cnc3sc(C(=O)Nc4ccccc4OC)c(C)c3c2=O)sc2c1CCCC2 | i
CCOc1ccc(C(=O)NC(=S)Nc2cccc(C(=O)O)c2C)cc1Cl | i
O=S(=O)(c1cccc2ccccc12)N1CCN(c2ccccc2Cl)CC1 | i
CCSc1nnc(-c2ccc(C)c(S(=O)(=O)N3CCN(C)CC3)c2)c2ccccc12 | i
O=C(Nc1ccc2c(c1)OCCO2)c1ncn[nH]1 | i
CCCN(CCC)c1ncnc2c1cnn2-c1ccc(Cl)cc1 | 4%
O=C(NCc1ccc(Cl)cc1)c1ccc(COCC(F)(F)C(F)F)cc1 | i
Cc1ccc(S(=O)(=O)CC(=O)N(C)C)cc1 | i
Cc1nn(C)cc1CNC(=O)c1ccccc1Br | i

(more compounds)
SMILES | Mtb growth
Clc1cc(Cl)c(OCc2nc(-c3ccncc3)no2)cc1Cl | i
CC1CN(C(=O)C(Cl)(Cl)Cl)CC(C)O1 (stereo not drawn) | 3%
O=C(Nc1nc2c(s1)CCCC2)c1ccc(Br)s1 | 0.62µg/mL*
CCn1cc(C(=O)O)c(=O)c2cc(F)c(N3CCN(C(=S)Nc4cc(C(F)(F)F)ccc4Cl)CC3)cc21 | 3µg/mL*
Cc1ccccc1C(=O)N1CCN(c2ccc([N+](=O)[O-])cc2C(F)(F)F)CC1 | i
COc1ccc(CCNC(=O)c2ccc(C)s2)cc1OC | 3%
NCCCN(Cc1ccco1)C1CCCC1 | i
COc1cc(NC(=O)COc2cc(C)ccc2C)cc(OC)c1 | i
Cc1c(NC(=O)Nc2ccccc2C(F)(F)F)c(=O)n(-c2ccccc2)n1C | i
Cc1nc(NC(=O)c2cccc(OCC(C)C)c2)ccc1Br | ?
Cc1cc(C(F)F)n2ncc(C(=O)NCCc3ccc(Cl)cc3)c2n1 | ?
COc1ccc(OC)c(S(=O)(=O)N2CCOCC2)c1 | i
Cc1cccc(C(=O)N2CCN(c3ccccc3)CC2)c1[N+](=O)[O-] | 1%
c1ccc(-c2cc3c(N4CCN(c5ccccc5)CC4)ncnc3s2)cc1 | 39%
Cc1cccc(CN(CC(=O)Nc2cccc(C)c2)S(=O)(=O)c2ccc(Cl)cc2)c1 | i
CSc1ccc(S(=O)(=O)NC2CCCCC2)cc1 | i
Cc1ccc(C)c(NC(=O)CCC(=O)OCc2ccc(Cl)cc2)c1 | i
OC(C#CCN1CCOCC1)(c1ccc(Cl)cc1)c1cccc(Cl)c1 (stereo not drawn) | 1%
O=c1oc2cc3occ(-c4ccc5c(c4)OCO5)c3cc2c2ccccc12 | i
COc1ccc(Nc2nc(C)cc(C)n2)cc1Cl | i
COc1ccc(Nc2ccc(-c3n[nH]c(=O)c4ccccc34)cc2[N+](=O)[O-])cc1 | i
Cc1ccccc1-c1noc(-c2ccccc2Br)n1 | 1%
CCCc1cc(=O)oc2cc(C)cc(OCC(=O)c3ccc(C)cc3)c12 | i
COc1ccccc1C(=O)NC1CC2CCC1C2 (stereo not drawn) | i
Cc1ccc(C(=O)Nc2nnc(CC(C)C)s2)cc1C | i

Carrying on:
SMILES | Mtb growth
CCOC(=O)c1ccc(NC(=O)CCSc2nc(N)c3c(C)c(C)sc3n2)cc1 | i
CN(CC(=O)N1CCOCC1)S(=O)(=O)c1ccc(Cl)cc1 | 1%
CN1CCN(NC(=S)Nc2ccc(Oc3ccccc3)cc2)CC1 | i
CCOc1cc(C(=O)Nc2ccc(I)cc2Cl)cc(OCC)c1OCC | i
COCCSc1ccccc1C(=O)Nc1cc(C)on1 | 2%
CCc1c(C#N)c(SCc2ccc3c(c2)OCCO3)nc2c1C(=O)CC(C)(C)C2 | 1%
CCc1nnc(NC(=O)CC(C)(C)C)s1 | i
CCN(CC)c1ccc(NC(=O)CSc2nc3ccc(OC)cc3[nH]2)cc1C | 1%
O=C(Nc1ccccc1Br)c1cnccn1 | i
C=CCN1C(=O)C2C(C1=O)C1C=CC2C12CC2 (stereo not drawn) | i
CCOc1ccc(NS(=O)(=O)c2ccc(NC(=O)c3ccccc3SC)cc2)cc1 | 1%
COC(=O)COc1cc(C)c(Br)cc1C(C)C | i
Cn1c(=O)c2c(nc(N3CCc4ccccc4C3)n2CCSc2ncccn2)n(C)c1=O | i
O=C(COc1ccc(S(=O)(=O)N2CCCC2)cc1)N1CCCCC1 | i
COc1ccc(NC(=S)NCCN(C)C)cc1 | i
COc1cc(-c2nnc3sc(-c4ccc(C)c(C)c4)nn23)cc(OC)c1OC | 1%
CCOC(=O)C1CCCN(CCC(=O)Nc2cc(C)ccc2OC)C1 (stereo not drawn) | i
CS(=O)(=O)N(Cc1ccccc1Cl)c1ccc(C(=O)Nc2ccc(C(F)(F)F)cc2)cc1 | i
CCc1cccc(CC)c1NC(=O)c1cc2ccccc2oc1=O | i
CN(CC(=O)Nc1cc(C(F)(F)F)ccc1Cl)S(=O)(=O)c1ccc2ccccc2c1 | i
O=C(Nc1ccc(F)cc1)c1ccc(Cn2nnc3ccccc32)cc1 | i
COc1cccc(S(=O)(=O)NCc2ccc(C(=O)O)cc2)c1 | i
CCOc1ccccc1NC(=O)CN(C)S(=O)(=O)c1ccc(Br)cc1 | 1%
COc1cccc(NC(=O)CSc2nnc3n(CCc4ccccc4)c(=O)c4c5c(sc4n23)CCCC5)c1 | 29%
O=C(Nc1ccccc1C(=O)N1CCCCC1CCO)c1ccco1 (stereo not drawn) | i

(next part)
SMILES | Mtb growth
COCCNC(=O)c1ccc(S(=O)(=O)N2CCC(C)CC2)cc1 | i
O=C(NCc1ccc(-c2nc3ccccc3o2)cc1)c1cccnc1 | i
CCOC(=O)CCc1c(C)c2ccc(OCC)c(C)c2oc1=O | i
COC(=O)c1ccccc1NC(=O)CN1C(=O)c2cccc3cccc1c23 | i
Nc1nc(-c2ccccc2)c(NC(=O)c2ccccc2)s1 | 3%
O=C(OCc1ccccc1)c1ccc(Br)cc1 | i
Cc1cccc(-n2c(C)nnc2SCC(=O)c2ccc(Cl)cc2)c1 | i
CC(C)N(Cc1nc(-c2ccccc2)no1)C(=O)c1ccc(Br)o1 | 8%
CCn1c(CNC(=O)c2ccc(Cl)cc2Cl)nnc1SCc1ccc(Cl)c(Cl)c1 | i
CCOc1cc(C(=O)NC(C)C2CC3CCC2C3)cc(OCC)c1OCC (stereo not drawn) | i
CC(=O)Nc1cccc(NC(=O)C(=O)Nc2cccc(NC(C)=O)c2)c1 | i
O=C(Nc1ccc(I)cc1C(=O)Nc1cccnc1)c1ccccc1Cl | 12%
CCOC(=O)N1CCN(S(=O)(=O)c2cc(Cl)c(Cl)cc2C)CC1 | 0%
O=C(OCC(=O)c1ccccc1Cl)c1cnccn1 | i

Assay outcomes from PubChem.
